Mtb bLac sens: beta-lactam sensitization of Mtb H37Rv; M. tuberculosis H37Rv growth with meropenem, percent inhibition; hits of this screen are not shown here; hit rate 0.27% among 330,000; inhibition, % at 25 µM;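 active means about 74% or more and at least 40 points above the plate without the antibiotic, then above 30% in a dose series; inconclusive means first-round hits that could not be retested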;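 further: growth measured after seven days incubation then overnight dye step; 0% = bacteria only wells and 100% = bacteria with antibiotic; twin plates without the antibiotic show which effects depend on it; some results filed as inactive read as strong as hits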
Arbovirus anti: blocks arbovirus infection; inhibition, % at 10 µM; hit rate 0.37% among 200,000; arbovirus infection cell-based antiviral screen;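 active means inhibition from about 30%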;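 further: bluetongue infection of BSR cells; cell survival read as ATP light after 72 h; 0% = infected wells without compound and 100% = uninfected wells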
Mtb H37Rv: M. tuberculosis H37Rv growth inhibitors, H37Rv strain (AID 1626); M. tuberculosis H37Rv growth inhibition; higher % means a stronger effect; inhibition, % at 10 µM; hits with a dose series show IC50 in µM; hit rate 0.95% among 220,000;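 active means confirmed in a dose series; inconclusive means inhibition above 80% but not taken into the dose series; inactive means below 80% or under 30% at every dose of the series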;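 further: bacteria incubated seven days before Alamar blue readout; 0% = bacteria only wells and 100% = bacteria with antibiotic wells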
RecA intein inh: inhibitors of M. tuberculosis RecA intein splicing. hit rate 0.75% among 290,000. P9WHJ3. AID 2221. cell-free RecA intein splicing, fluorescence. inhibition, %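 (about 9 µM by stock and volumes)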; in the data active means inhibition above about 30%; inconclusive means no clear call, values can overlap the other calls;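 further: 0% = vehicle wells and 100% = reference inhibitor control wells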
Target sequence (P9WHJ3 whole entry, looked up): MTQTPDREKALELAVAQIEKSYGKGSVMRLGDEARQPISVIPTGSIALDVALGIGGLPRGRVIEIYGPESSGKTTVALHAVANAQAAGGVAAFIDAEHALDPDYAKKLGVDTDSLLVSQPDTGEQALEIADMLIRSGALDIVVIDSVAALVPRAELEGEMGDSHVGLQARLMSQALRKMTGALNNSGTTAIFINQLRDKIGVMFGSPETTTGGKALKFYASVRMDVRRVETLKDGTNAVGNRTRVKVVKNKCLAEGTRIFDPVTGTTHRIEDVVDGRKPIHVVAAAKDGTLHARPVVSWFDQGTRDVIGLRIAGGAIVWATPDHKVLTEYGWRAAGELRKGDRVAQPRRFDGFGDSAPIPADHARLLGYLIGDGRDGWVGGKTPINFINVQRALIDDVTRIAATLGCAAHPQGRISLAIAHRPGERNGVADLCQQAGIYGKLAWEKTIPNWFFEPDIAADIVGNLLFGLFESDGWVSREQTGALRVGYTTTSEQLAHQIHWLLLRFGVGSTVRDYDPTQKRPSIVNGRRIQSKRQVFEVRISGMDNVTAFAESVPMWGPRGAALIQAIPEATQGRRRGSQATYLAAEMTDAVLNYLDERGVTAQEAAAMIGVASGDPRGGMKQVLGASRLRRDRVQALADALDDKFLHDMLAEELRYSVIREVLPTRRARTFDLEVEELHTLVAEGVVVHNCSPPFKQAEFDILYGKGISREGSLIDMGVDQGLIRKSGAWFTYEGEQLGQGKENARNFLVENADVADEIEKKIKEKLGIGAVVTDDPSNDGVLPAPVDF
YopH PTP inh: inhibitors of Yersinia enterocolitica YopH tyrosine phosphatase. inhibition, %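 (about 10 µM by stock and volumes)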. fluorescence Ex485/Em525. hit rate 0.16% among 140,000. AID 898;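 active means inhibition of 50% or more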;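 further: controls were vehicle for no effect and minimum signal wells for full effect; inactives centre near -20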
Arbovirus anti repeat: second read-out of Arbovirus anti, no call of its own (marks repeat the call); inhibition, %; measured here: 10K subset replicate screen; many hits read low in the repeat;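 first of two repeat runs on a subset; 0% = infected and 100% = uninfected wells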
An asterisk follows results filed as active; u = inconclusive; x = not tested or not shown. This is a subset; rates above refer to the full screens.

SMILES | Mtb bLac sens | Arbovirus anti | Mtb H37Rv | RecA intein inh | YopH PTP inh | others
CC1CCN(C(=O)Cn2c(SCC(=O)Nc3nccs3)nc3ccccc32)CC1 | -3 | -1 | 1% | -2.8 | -56
c1ccc2c(-c3nc(-c4ccncc4)no3)cccc2c1 | x | 5 | 3% | 6.1 | 19
Cc1ccc(S(=O)(=O)N(C)c2ccc(C)c([N+](=O)[O-])c2)cc1 | 0 | 10 | 2% | -6.1 | x
CC(C)CCn1c(C(C)O)nc2ccccc21 (stereo unspecified) | -8 | -4 | 5% | x | -17
COC(=O)c1cnc(N2CCOCC2)nc1C(F)(F)F | -4 | x | -6% | -1.5 | x
CC(=O)N=c1sccn1CC(O)c1ccccc1 (stereo unspecified) | -1 | x | x | -1.0 | x
CC(/C=N/NC(=O)CSc1nc(C)cc(C)n1)=C\c1ccccc1 | -9 | 3 | 1% | 2.8 | -11
CCN(CC)CCN(C(=O)c1ccc2c(c1)CCCC2)c1nc2ccc(OC)cc2s1 | -6 | x | x | 14 | x
CCOC(=O)c1c(NC(=O)CSc2ncnc3ccccc23)sc(C)c1C | 48 | -2 | 8% | 5.4 | -39
COc1cc(C2c3[nH]c4ccccc4c3C[C@H]3C(=O)N(CCO)CC(=O)N23)cc(OC)c1OC (stereo partly specified) | 1 | x | x | -1.0 | x

The last two entries of the part before lead into the next:
SMILES | Mtb bLac sens | Arbovirus anti | Mtb H37Rv | RecA intein inh | YopH PTP inh | others
CCOC(=O)c1c(NC(=O)CSc2ncnc3ccccc23)sc(C)c1C | 48 | -2 | 8% | 5.4 | -39
COc1cc(C2c3[nH]c4ccccc4c3C[C@H]3C(=O)N(CCO)CC(=O)N23)cc(OC)c1OC (stereo partly specified) | 1 | x | x | -1.0 | x
Cc1cccc(-n2ncc3c(N4CCc5ccccc54)ncnc32)c1 | 3 | 0 | x | -0.2 | -17
COCc1ccc([C@@H]2C[C@H]3CN(Cc4ccccc4C)C(=O)[C@]34CCCN24)o1 | -5 | 2 | 1% | 1.6 | x
CCCS(=O)(=O)c1c(S(=O)(=O)CCC)c2cnccn2c1C(=O)c1ccc(CC)cc1 | -12 | 2 | 2% | -2.6 | -28
Cc1cc(-c2c(C(=O)N3CCOCC3)c(C)nn2-c2ccccc2)no1 | -11 | x | -8% | 2.2 | x
O=C(O)CCC(=O)N1CCN(c2cccc(Cl)c2)CC1 | -9 | 4 | 4% | 1.7 | -69
COc1ccc(OC)c(C(c2nnnn2C2CCCC2)N2CCN(c3ccccc3)CC2)c1 (stereo unspecified) | -5 | -1 | -1% | 8.9 | 8
CCN1C(=O)CC(N2CCN(C(c3ccccc3)c3ccccc3)CC2)C1=O (stereo unspecified) | -11 | 1 | -1% | 1.6 | 11
O=C(Cc1cccs1)N1CCCC(c2nc3c(nnn3Cc3ccc(F)cc3)c(=O)[nH]2)C1 (stereo unspecified) | -8 | -29 | -3% | 0.5 | -32
CC1CCCCC1NC(=O)CCNS(=O)(=O)c1ccc(Cl)cc1 (stereo unspecified) | 5 | x | x | -2.6 | x
Fc1ccc(CNCCc2c[nH]c3ccccc23)cc1 | 6 | x | x | 1.5 | x
COc1cc(NC(=O)C(C)C)ccc1NC(=O)c1ccco1 | 8 | -6 | -3% | 0.1 | -28
COc1ccccc1N1C(=O)CC(Sc2nc(C)cc(C)n2)C1=O (stereo unspecified) | 6 | -4 | -4% | -0.6 | -30
CCN1CCN(Cc2ccc(NC(=O)Nc3ccccc3Cl)cc2)CC1 | 2 | -28 | -4% | 0.0 | -24
c1ccc(N=Nc2ccc3cccccc2-3)cc1 | 72 | x | x | 0.4 | x
O=C(CSc1ccc(-c2ccc(Br)cc2)nn1)NC1CCCC1 | 19 | x | x | -4.3 | x
CCOC(=O)c1c(NC(=O)COC(=O)CCOc2ccc(C)cc2)sc(C(=O)N(C)C)c1C | 1 | x | x | 4.2 | x
COc1ccc(CNCCC(c2ccc(OC(C)C)cc2)c2ccccc2OC)cc1OC (stereo unspecified) | 75 | x | x | 5.4 | x
Cc1ccc(S(=O)(=O)/C(C#N)=C/c2c(N3CCN(Cc4ccccc4)CC3)nc3ccccn3c2=O)cc1 | 9 | x | x | -1.7 | x
COc1ccc(NC(=O)COC(=O)C2CCN(S(=O)(=O)c3cccs3)CC2)cc1 | 1 | 1 | -3% | -2.3 | x
C=CCN(c1ccc(C(=O)Nc2ccc3c(c2)n(C)c(=O)n3C)cc1)S(C)(=O)=O | 0 | x | x | -3.6 | x
O=C(Cn1nc(-c2ccco2)ccc1=O)Nc1ccc(Cl)c(Cl)c1 | -11 | x | x | 5.1 | x
CN(C(=O)Cc1ccc2c(c1)OCO2)C1CCCN(Cc2ccccc2F)C1 (stereo unspecified) | -7 | x | x | -1.4 | x
S=c1[nH]nc(COc2ccccc2)n1/N=C/c1cccs1 | 0 | 2 | 12% | -0.4 | -32
O=C(CCc1nc2ccccc2c(=O)[nH]1)OCCOc1ccc(Cl)cc1 | 2 | -2 | 2% | -0.6 | x
O=C(CS(=O)(=O)c1ccc(F)cc1)Nc1nccs1 | 0 | x | x | -2.7 | x
COc1ccc(NC(=O)NC2CCCCC2C)cc1 (stereo unspecified) | 1 | 4 | 0% | -0.5 | x
Cc1cc(C)nc(NS(=O)(=O)c2ccc(NC(=O)CSc3nc4ccccc4[nH]3)cc2)n1 | 0 | -6 | -2% | 0.8 | -18
CCOc1ccccc1NC(=O)CCNS(=O)(=O)c1ccc2[nH]c(=O)oc2c1 | -3 | x | x | -1.2 | x
O=S(=O)(NCC1OCCc2ccccc21)c1ccc(S(=O)(=O)N2CCOCC2)cc1 (stereo unspecified) | -15 | 2 | -1% | 3.7 | -44
O=C(COC(=O)c1ccccc1)Nc1cccc(S(=O)(=O)N2CCOCC2)c1 | -9 | 0 | 5% | -2.9 | x
Cc1[nH]c(=S)sc1Cc1ccc(Cl)c(Cl)c1 | -1 | -8 | 3% | -5.6 | -18
CN(Cc1cnn(C)c1)C(=O)C1CCC(=O)N(Cc2cccc(C(F)(F)F)c2)C1 (stereo unspecified) | -14 | x | x | 0.1 | x
COc1ccc(-n2c(/C=C3\C(=O)N(C)c4ccccc43)nc3ccccc3c2=O)cc1 | -9 | x | 3% | 4.1 | x
CCn1c(C(=O)Nc2ccsc2C(=O)OC)cc2sc(Cl)cc21 | 3 | 15 | 1% | 0.5 | -46
O=C(O)C1CCCCC1C(=O)Nc1ccc(Cl)cc1 (stereo unspecified) | -7 | 5 | -16% | 0.4 | -38
CCOC(=O)c1c(=O)n(O)c2ccc(C)cc2[n+]1[O-] | -7 | -1 | 2% | -23 | -33
O=C(CCCc1c[nH]c2ccccc12)N1CCN(c2ccc(N3CCOCC3)nn2)CC1 | -1 | -3 | 6% | -2.9 | -30 | Arbovirus anti repeat=1
O=C(CSCC(=O)Nc1ccccc1)N/N=C/c1c(O)ccc2ccccc12 | x | -30 | x | 16 | -33
O=C(CCCn1c(SCc2cccc([N+](=O)[O-])c2)nc2ccccc2c1=O)NCC1CCCO1 (stereo unspecified) | -2 | -2 | -2% | 0.3 | x
CCN(CC(=O)NCc1ccc(Cl)cc1)C(=O)/C=C/c1ccccc1 | -3 | x | x | -0.8 | x

Random excerpt: 6 records from the list
SMILES | Mtb bLac sens | Arbovirus anti | Mtb H37Rv | RecA intein inh | YopH PTP inh | others
Cc1ccc(S(=O)(=O)/C(C#N)=C/c2c(N3CCN(Cc4ccccc4)CC3)nc3ccccn3c2=O)cc1 | 9 | x | x | -1.7 | x
O=C(CSCC(=O)Nc1ccccc1)N/N=C/c1c(O)ccc2ccccc12 | x | -30 | x | 16 | -33
CC1CCCCC1NC(=O)CCNS(=O)(=O)c1ccc(Cl)cc1 (stereo unspecified) | 5 | x | x | -2.6 | x
CCCS(=O)(=O)c1c(S(=O)(=O)CCC)c2cnccn2c1C(=O)c1ccc(CC)cc1 | -12 | 2 | 2% | -2.6 | -28
COc1ccc(NC(=O)NC2CCCCC2C)cc1 (stereo unspecified) | 1 | 4 | 0% | -0.5 | x
CCN1CCN(Cc2ccc(NC(=O)Nc3ccccc3Cl)cc2)CC1 | 2 | -28 | -4% | 0.0 | -24

(continued)
SMILES | Mtb bLac sens | Arbovirus anti | Mtb H37Rv | RecA intein inh | YopH PTP inh | others
O=C(c1cccc(C(=O)N2CCc3ccccc32)n1)N1CCc2ccccc21 | 0 | -3 | -2% | -1.2 | -13 | Arbovirus anti repeat=1
Cc1ccc(S(=O)(=O)N2CCCC2C(=O)Nc2nccs2)cc1 (stereo unspecified) | 5 | 7 | 3% | -4.7 | -32 | Arbovirus anti repeat=-2
S=C(N/N=C/c1cccs1)NC1CC2CCC1C2 (stereo unspecified) | 94 | x | u | 23 | x
C=CCOc1ccc(/C=C/C(=O)OCC(=O)Nc2c(C)n(C)n(-c3ccccc3)c2=O)cc1 | -4 | x | x | -1.9 | x
O=C(CCNC(=O)N1CC(=O)Nc2ccccc21)Nc1ccc(F)c(Cl)c1 | -1 | x | x | -1.7 | x
O=C(O)CCCNC(=O)c1cncc(Br)c1 | -5 | 8 | x | -5.2 | -38
Cc1noc(NS(=O)(=O)c2ccc(NC(=O)CCN3C(=O)c4ccccc4C3=O)cc2)c1C | 0 | 19 | -7% | -2.6 | x
COc1ccccc1N1CCN(C(=O)C(NS(=O)(=O)c2cccs2)c2ccccc2)CC1 (stereo unspecified) | -9 | 6 | 10% | x | -36
CCOC(=O)C1=C(C)NC2=C(C(=O)c3ccccc32)C1c1cccc2ccccc12 (stereo unspecified) | -5 | x | 4% | 3.4 | x
COc1cccc(CNC(=O)CCCC(=O)NC(C)CCc2ccccc2)c1 (stereo unspecified) | -19 | x | x | -1.3 | x
CCn1cc(C(=O)Nc2cc(C)ccc2C)c(=O)c2ccc(C)nc21 | -1 | 0 | -1% | -5.1 | x
Clc1ccc(C2=NN=C3COc4ccccc4N3C2)cc1 | -3 | 7 | -1% | 1.1 | -5
CCOc1ccc(S(=O)(=O)NC(=O)c2ccccc2)cc1 | -7 | x | x | -2.7 | x
Cc1csc(NC(=O)CCC(=O)N(CC(=O)NC2CCCC2)Cc2ccco2)n1 | -3 | 8 | -4% | -5.1 | -35
Cc1nc2cc(NC(=O)c3ccc(S(=O)(=O)N(C)c4ccccc4)cc3)ccc2o1 | -2 | x | x | 6.1 | x
CC(=O)Nc1cccc(NC(=O)c2oc3ccccc3c2C)c1 | 4 | -5 | x | -6.1 | -24
NS(=O)(=O)c1ccc(CCNC(=O)C2CCN(S(=O)(=O)c3cnc[nH]3)CC2)cc1 | 10 | -2 | -4% | 3.8 | 15
COc1ccc(-c2ccc(SCC(=O)NCc3ccco3)nn2)cc1OC | 1 | -2 | 0% | 0.7 | -35

Screens from PubChem BioAssay.
